FLuc inh: blocks Photinus pyralis firefly luciferase activity; Potency, µM (series often up to 57.1 µM), for the others: at the top dose activity change, negative = inhibition, most hits filed as inhibitors; P08659; purified firefly luciferase, luminescence, 8 min; hit rate 2.2% among 72,000; also: % is scaled to controls: 0 for no effect and ±100 for the full control effect; nearly all actives have a fitted effect of over 40% in size
Target sequence (P08659 whole entry, looked up): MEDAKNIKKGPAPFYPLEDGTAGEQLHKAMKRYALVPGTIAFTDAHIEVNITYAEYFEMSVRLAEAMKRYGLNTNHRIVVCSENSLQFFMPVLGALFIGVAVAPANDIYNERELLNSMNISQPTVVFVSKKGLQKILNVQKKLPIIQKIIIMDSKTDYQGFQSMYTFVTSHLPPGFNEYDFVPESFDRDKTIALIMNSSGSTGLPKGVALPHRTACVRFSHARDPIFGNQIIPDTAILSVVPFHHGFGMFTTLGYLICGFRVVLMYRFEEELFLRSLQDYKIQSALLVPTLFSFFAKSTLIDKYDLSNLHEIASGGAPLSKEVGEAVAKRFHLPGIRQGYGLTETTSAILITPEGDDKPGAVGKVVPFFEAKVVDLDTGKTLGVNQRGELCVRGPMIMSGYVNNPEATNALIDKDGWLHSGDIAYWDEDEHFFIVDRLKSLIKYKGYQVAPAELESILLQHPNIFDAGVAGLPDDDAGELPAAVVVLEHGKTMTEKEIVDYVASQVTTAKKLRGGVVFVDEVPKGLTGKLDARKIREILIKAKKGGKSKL
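Luminescence read-out after 8 min at room temperature; enzyme reaction used luciferin plus 10 uM ATP (linear range) in imidazole buffer pH 7.2 with KCl, MgCl2, Tween 20 and BSA. Each sample was run as a titration.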
ERK AVP block: blocks ERK signaling stimulated by vasopressin; HEK293-V1b, vasopressin-stimulated pERK AlphaScreen; Potency, µM (doses to about 57.5 µM), for the others: at the highest dose activity, negative = inhibition, actives largely listed as inhibitors; hit rate 0.99% among 72,000; also: % is scaled to controls: 0 for no effect and ±100 for the full control effect; nearly all actives have a fitted effect of over 55% in size
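HEK293 cells stably expressing V1b receptor, seeded overnight in 1% FBS, were treated with compounds for 30 min at 37C, then stimulated 5 min with 25 nM vasopressin; phospho-ERK read by AlphaScreen SureFire after lysis.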
HEK293 cAMP ctrl: counter-screen for TSHR agonists: cAMP increase in parental HEK293 | parental HEK293 CNG cAMP sensor, membrane potential fluorescence | AID 938 | Potency, µM (series often up to 57.1 µM), for inactives: top-dose activation, usual class: activators | hit rate 2.5% among 73,000; also: % of control where 0% means no effect; nearly all actives have a fitted effect of over 55% in size
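Counterscreen for endogenous-receptor signalling: CNG-channel HEK 293 cells report cAMP rise by membrane depolarization. After 60 min dye equilibration with 100 uM RO 20-1724, compounds incubated 30 min before bottom-read fluorescence at 590 nm.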
Tau filament bind: tau filament binding; hit rate 2% among 71,000; Potency, µM (titrated, usually from 57.1 µM), without a hit: top-dose activity change, negative = inhibition; recombinant tau filaments, thioflavin S fluorescence, 15 h; filaments grown with octadecylsulfate alongside compound; P10636; AID 596;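 also: % is scaled to controls: 0 for no effect and ±100 for the full control effect; actives lower thioflavin S fluorescence by blocking filaments or displacing dye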
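Quantitative HTS: thioflavine S signal from ODS-induced tau filaments, excited at 450 nm, emission 510 nm. Conditions: 1 uM tau, 30 uM ODS, 15 h at 37 C, pH 7.4.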
* = called active by the depositor; i = inactive; ? = inconclusive; · = not tested or not shown; [ ] = another dose, or the depositor's remark. Calls follow the shape of the dose curve; as a rule, active = well fitted curve in the direction sought with a large enough effect; inconclusive = small, poorly fitted or top-dose-only effect, or another doubt; inactive = no such curve, though single readings can be large; an effect the other way counts as inactive or inconclusive. Potency is read from the fitted curve at half-maximal effect.

smiles | FLuc inh | ERK AVP block | HEK293 cAMP ctrl | Tau filament bind
CCN(CC)S(=O)(=O)c1ccc2c3c(cccc13)C(=O)N2 | 3% | · | 10% | -15%
Cc1cccn2c(=O)c3cc(C(=O)NCCN4CCOCC4)c(=N)n(CCc4ccccc4)c3nc12 | 1% | -15% | -11% | 0.5µM*
Cc1cc(N=Cc2cc(Br)ccc2O)no1 | 1% | -16% | -16%[11.4 µM] | 2%[11.4 µM]
COc1ccc2ccccc2c1C(O)c1nccn1C (stereo not given) | -1% | ? | -6% | i
COCCOC(=O)C1=C(C)NC2=C(C(=O)CC(C)(C)C2)C1c1cc2c(cc1Br)OCO2 (stereo not given) | 2% | 67%[activator] | 14% | 10%
CCN1C2=C(C(=O)CCC2)C(c2ccc(O)c(Br)c2)C2=C1CCCC2=O | 1% | 6% | 7% | 31%
O=C(c1cc2nc(-c3ccco3)cc(C(F)(F)F)n2n1)N1CCc2ccccc2C1 | -3% | -8% | 1% | ?
CCOC(=O)N1CCN(C(=O)Nc2ccc3nc(-c4ccccn4)c(-c4ccccn4)nc3c2)CC1 | 0% | 0% | -2% | 12%
COCCOC(=O)C1=C(C)N=c2s/c(=C\c3cccs3)c(=O)n2C1c1cccs1 (stereo not given) | 1% | -22% | -4% | ?
NC(=O)c1ccc([N+](=O)[O-])cc1 | · | 2% | ? | -7%
O=C(CN1C(=O)C2CC=C(Cl)CC2C1=O)NCc1ccccc1 (stereo not given) | 0% | -6% | -2%[11.4 µM] | 193%[11.4 µM]
COc1ccc(-c2oc3cc(OC)ccc3c2C(=O)c2ccc(C#N)cc2)cc1 | · | 15% | 10% | ·

Other records.
smiles | FLuc inh | ERK AVP block | HEK293 cAMP ctrl | Tau filament bind
Cc1nn(C)c(C)c1N=Cc1c(O)ccc2ccccc12 | -12% | -24% | -7% | ?
COc1ccc(CCNc2oc(COc3ccccc3Cl)nc2C#N)cc1OC | -1% | ? | ? | 95%
O=c1oc(-c2cccs2)nc2sc3c(c12)CCC3 | 0% | -23% | 0% | 155%
O=c1sc(N2CCN(c3ccccc3F)CC2)nc2ccsc12 | ? | · | 8% | 270%
CC1(C)Cc2c(C#N)c(N)sc(=S)c2CO1 | -5% | -13% | 3% | 38%
COc1ccc(C2C(C#N)=C(C)NC3=C2C(=O)CC(C)(C)C3)c(OC)c1 (stereo not given) | 0% | 55%[activator] | 12% | 24%
O=C(NC1CC1)c1cc2c(s1)-c1ccccc1OC2 | ? | ? | 25% | 5%
CSc1nnc2c(n1)OC(c1ccc(C(=O)O)cc1)N(C(C)=O)c1ccccc1-2 (stereo not given) | 3% | -2% | 0% | 6%
CN(C)c1nc(-c2ccccc2)c2cnn(Cc3ccccc3)c2n1 | -2% | 143%[activator] | 12% | 15%
Cc1cc(C)n2nc3nc4c(cc3c2n1)CCCC4 | · | · | -11% | ·
O=C(O)c1ccc2c3c1cccc3c(=O)n1c3ccccc3nc21 | 1% | 0% | -5% | 37%
CCOC(=O)c1cc2c(=O)n3cccc(C)c3nc2n(CCCOC)c1=NC(=O)c1cccnc1 | · | · | -15% | ·

18 of the compounds above, with two lines to a compound.
Values run as follows: FLuc inh | ERK AVP block | HEK293 cAMP ctrl | Tau filament bind
> O=C(c1cc2nc(-c3ccco3)cc(C(F)(F)F)n2n1)N1CCc2ccccc2C1
 : -3% | -8% | 1% | ?
> CCOC(=O)N1CCN(C(=O)Nc2ccc3nc(-c4ccccn4)c(-c4ccccn4)nc3c2)CC1
 : 0% | 0% | -2% | 12%
> COCCOC(=O)C1=C(C)N=c2s/c(=C\c3cccs3)c(=O)n2C1c1cccs1 (stereo not given)
 : 1% | -22% | -4% | ?
> NC(=O)c1ccc([N+](=O)[O-])cc1
 : · | 2% | ? | -7%
> O=C(CN1C(=O)C2CC=C(Cl)CC2C1=O)NCc1ccccc1 (stereo not given)
 : 0% | -6% | -2%[11.4 µM] | 193%[11.4 µM]
> COc1ccc(-c2oc3cc(OC)ccc3c2C(=O)c2ccc(C#N)cc2)cc1
 : · | 15% | 10% | ·
> Cc1nn(C)c(C)c1N=Cc1c(O)ccc2ccccc12
 : -12% | -24% | -7% | ?
> COc1ccc(CCNc2oc(COc3ccccc3Cl)nc2C#N)cc1OC
 : -1% | ? | ? | 95%
> O=c1oc(-c2cccs2)nc2sc3c(c12)CCC3
 : 0% | -23% | 0% | 155%
> O=c1sc(N2CCN(c3ccccc3F)CC2)nc2ccsc12
 : ? | · | 8% | 270%
> CC1(C)Cc2c(C#N)c(N)sc(=S)c2CO1
 : -5% | -13% | 3% | 38%
> COc1ccc(C2C(C#N)=C(C)NC3=C2C(=O)CC(C)(C)C3)c(OC)c1 (stereo not given)
 : 0% | 55%[activator] | 12% | 24%
> O=C(NC1CC1)c1cc2c(s1)-c1ccccc1OC2
 : ? | ? | 25% | 5%
> CSc1nnc2c(n1)OC(c1ccc(C(=O)O)cc1)N(C(C)=O)c1ccccc1-2 (stereo not given)
 : 3% | -2% | 0% | 6%
> CN(C)c1nc(-c2ccccc2)c2cnn(Cc3ccccc3)c2n1
 : -2% | 143%[activator] | 12% | 15%
> Cc1cc(C)n2nc3nc4c(cc3c2n1)CCCC4
 : · | · | -11% | ·
> O=C(O)c1ccc2c3c1cccc3c(=O)n1c3ccccc3nc21
 : 1% | 0% | -5% | 37%
> CCOC(=O)c1cc2c(=O)n3cccc(C)c3nc2n(CCCOC)c1=NC(=O)c1cccnc1
 : · | · | -15% | ·

More entries follow.
Labels used below: A = FLuc inh; B = ERK AVP block; C = HEK293 cAMP ctrl; D = Tau filament bind
mol: CCCC(=O)c1cc(F)c(N2CCN(C(=O)OCC)CC2)cc1C
  A: 2%	B: 33%[activator]	C: 14%	D: 11%

mol: COC(=O)C1=CN(CC2CCCO2)C=C(C(=O)OC)C1c1ccsc1 (stereo not given)
  A: -1%	B: 35%[activator]	C: 11%	D: 0%

mol: Cc1ccc(C2=CC(c3ccc(N(C)C)cc3)n3nnnc3N2)cc1 (stereo not given)
  A: 4%	B: 2%	C: 26%	D: 249%

mol: Cc1cc(=O)oc2cc3c(cc12)OCCN3
  A: -3%	B: -3%	C: -9%	D: 97%

mol: CCOC(=O)c1ccccc1NC(=O)CC1Nc2ccccc2NC1=O (stereo not given)
  A: -1%	B: -25%	C: 2%	D: 106%

mol: O=c1[nH]cnc2c1ncn2[C@H]1CC[C@@H](CO)O1
  A: ·	B: 13%	C: -5%	D: 5%

mol: CCOc1ccc(C2C(C(=O)OC)=CN(CCOC)C=C2C(=O)OC)cc1
  A: ·	B: ·	C: 2%	D: ·

mol: COc1ccc(N2CCN(c3ncnc4nc[nH]c34)CC2)cc1
  A: -10%	B: ·	C: 17%	D: 13%

mol: CCOC(=O)c1[nH]c(=O)[nH]c1COC(=O)c1cc2ccccc2o1
  A: 2%	B: -20%	C: 15%[11.4 µM]	D: 8%[11.4 µM]

mol: COCCN(CCOC)Cc1c(O)ccc2c3c(c(=O)oc12)CCC3
  A: 1%	B: -10%	C: 5%	D: 1%

mol: CCC(=O)c1cc2c(cc1NC(=O)c1cccs1)OCCO2
  A: -2%	B: -9%	C: -58%[inhibitor]	D: 56%

mol: O=C(NCc1cccs1)c1cc2c(s1)-c1ccccc1OC2
  A: -23%	B: -23%	C: 30%	D: 310%

Screens (PubChem)

Only part of the results is shown; rates above refer to the full screens.
